Screens as filed in PubChem.
NS1 function inh: inhibitors of influenza NS1 protein function; S. cerevisiae slowed by influenza A NS1, growth recovery by OD600; AID 2326; actives 0.4% (n = 270,000); Potency, µM (titrated, usually from 46.1 µM), without a hit: top-dose activity, positive = more growth; active means well fitted rising curve with a large enough effect; inconclusive means small, poorly fitted or top-dose-only effect; inactive means no such curve, though single readings can be large or run the other way; further: nearly all actives have a fitted effect of over 50% in size
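Read-out: OD600 growth recovery of NS1-expressing budding yeast. Cells grown overnight at 30C in -URA glucose medium, washed, resuspended and diluted 1:100 in 2% galactose assay medium, pH 6.0. Same strain lacking NS1 served as positive control.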
LASV entry inh: blocks Lassa virus binding to or entry into cells. actives 1.2% (n = 300,000). Lassa virus pseudotype entry inhibition, cell reporter; control for the full effect not named in the record. AID 540256. Potency, µM (doses to about 37.9 µM), without a hit: top-dose activity change, negative = inhibition, most hits filed as inhibitors; active means well fitted inhibition curve with a large enough effect; inconclusive means small, poorly fitted or top-dose-only effect, or effect the other way; inactive means flat fitted curve, though single readings scatter; tested in HEK293 cells; further: on the % scale 0 is the no-effect control and ±100 the full control effect; nearly all actives have a fitted effect of over 50% in size; luciferase read-out
SARS PLpro yeast: blocks SARS-CoV papain-like protease in a yeast assay; S. cerevisiae expressing SARS-CoV PLpro, growth rescue; control for the full effect not named in the record; Potency, µM (titrated, usually from 32.9 µM), inactives show top-dose activity, positive = growth rescue; actives 0.19% (n = 330,000); AID 485353; active means well fitted rising curve with a large enough effect; inconclusive means small, poorly fitted or top-dose-only effect; inactive means no such curve, though single readings can be large or run the other way; further: 0% is about no effect; nearly all actives have a fitted effect of over 55% in size; growth read by luminescence after 48 h
Cruzain noTriton: inhibitors of Trypanosoma cruzi cruzain without detergent; AID 1476; Potency, µM, without a hit: max response, negative = inhibition, actives largely listed as inhibitors; P25779; purified cruzain, Z-FR-AMC fluorescence, no detergent; actives 2.3% (n = 200,000);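 further: plate controls were enzyme without inhibitor for no effect and buffer without enzyme for full effect; nearly all actives have a fitted effect of over 40% in size; top concentration of the series not given in the record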
Target sequence (P25779 123-467 limits assumed): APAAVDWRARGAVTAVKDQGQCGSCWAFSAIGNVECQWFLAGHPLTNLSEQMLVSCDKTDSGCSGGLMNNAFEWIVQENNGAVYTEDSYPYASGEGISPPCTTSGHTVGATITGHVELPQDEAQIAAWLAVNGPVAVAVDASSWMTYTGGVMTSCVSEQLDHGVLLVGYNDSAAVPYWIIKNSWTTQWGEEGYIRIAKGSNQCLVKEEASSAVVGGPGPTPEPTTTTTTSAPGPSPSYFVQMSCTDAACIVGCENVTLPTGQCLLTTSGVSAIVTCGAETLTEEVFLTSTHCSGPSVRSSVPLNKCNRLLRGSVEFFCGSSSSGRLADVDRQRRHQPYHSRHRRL
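Purified cruzain at 1.5 nM, pre-incubated 15 min with compound at room temperature in 100 mM sodium acetate pH 5.5, 5 mM DTT, 0.00005% Triton X-100. Reaction started with 2 uM Z-FR-AMC; AMC fluorescence increase over 60 s gives rate.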
RE007 growth inh: less growth of the S. pombe RE007 Vpr strain; S. pombe RE007 Vpr strain, BacTiter-Glo ATP luminescence, 24 h; control for the full effect not named in the record; Potency, µM (top dose mostly 92.2 µM), without a hit: at the top dose activity change, negative = less growth; actives 0.21% (n = 360,000); active = well fitted falling curve with a large enough effect; inconclusive = small, poorly fitted or top-dose-only effect; inactive = no such curve, though single readings can be large or run the other way;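 further: on the % scale 0 is the no-effect control and ±100 the full control effect; nearly all actives have a fitted effect of over 50% in size; the assay follows cell death caused by Vpr and the record does not say whether a fall means rescue or toxicity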
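Fission yeast RE007 carrying one integrated HIV-1 vpr copy, seeded at OD 0.01 in PMG+AL medium with 23 nL pinned compound. Grown 24 h at 30 degrees; viability read by BacTiter-Glo luminescence after 5 min.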
StopGo reporter: lowers the luciferase signal of an FMDV 2A StopGo reporter. Potency, µM (highest dose often 57.9 µM), inactives show at the top dose signal change, negative = less light. actives 1.2% (n = 410,000). human cells with a luciferase reporter of 2A StopGo recoding; control for the full effect not named in the record; active = well fitted falling curve with a large enough effect; inconclusive = small, poorly fitted or top-dose-only effect; inactive = no such curve, though single readings can be large or run the other way; tested in HEK293T cells; further: on the % scale 0 is the no-effect control and ±100 the full control effect; nearly all actives have a fitted effect of over 45% in size; luciferase light after 4 h
Cruzain Triton: blocks cruzain activity in presence of Triton detergent; purified cruzain, Z-FR-AMC fluorescence, 0.01% Triton; Potency, µM, without a hit: max response, negative = inhibition, most hits filed as inhibitors; actives 0.43% (n = 200,000); P25779;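 further: plate controls were neutral wells for no effect and buffer without enzyme for full effect; nearly all actives have a fitted effect of over 40% in size; top concentration of the series not given in the record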
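Steps: dispense cruzain (1.5 nM final) in acetate buffer pH 5.5 with DTT and 0.01% Triton X-100; pin-transfer compounds; incubate 15 min RT; add Z-FR-AMC (2 uM final); read fluorescence every 30 s, using the 60 s intensity change.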
Marburg entry inh: blocks Marburg virus binding to or entry into cells | Marburg virus pseudotyped entry inhibition, cell reporter; control for the full effect not named in the record; about a third of the inactives were read at about 46 µM | Potency, µM (top dose mostly 37.8 µM), for inactives: top-dose activity change, negative = inhibition, hits mostly inhibitors | actives 1.8% (n = 300,000) | AID 540276; active = well fitted inhibition curve with a large enough effect; inconclusive = small, poorly fitted or top-dose-only effect, or effect the other way; inactive = flat fitted curve, though single readings scatter; tested in HEK293 cells; about a fifth of its hits are not listed in these tables; further: on the % scale 0 is the no-effect control and ±100 the full control effect; luciferase read-out
Active calls of the source: *; ? = inconclusive; · = not tested or not shown; & = joins results of further samples; [ ] = another dose, or the depositor's remark. Unless noted, the call rests on the fitted dose curve; in most records, active means well fitted curve in the direction sought with a large enough effect; inconclusive means small, poorly fitted or top-dose-only effect, or another doubt; inactive means no such curve, though single readings can be large; an effect the other way counts as inactive or inconclusive. Potency means the concentration at half of the fitted maximal effect.

Value order: Cruzain noTriton	Cruzain Triton	NS1 function inh	LASV entry inh	RE007 growth inh	SARS PLpro yeast	StopGo reporter	Marburg entry inh
1	Cc1ccc(CNC(=O)c2ccc(CNc3c(N4CCCC4)c(=O)c3=O)cc2)cc1
  -14%	-1.0%	-17%	·	-6%	25%	-18%	0%
2	Cc1cccc(N2C(=O)/C(=C\c3ccc(C(=O)O)cc3)c3ccccc3C2=O)c1
  ·	·	·	20%[46.1 µM]	14%	0%	?	15%[46.1 µM]
3	CCCN(CC(=O)Nc1ccccc1OC)C(=O)Cc1ccccc1F
  ·	·	-3%	5%	-7%	5%	10%	5%[46.1 µM]
4	COc1ccc(CNCCC2(C(C)C)CCOC(C)(C)C2)cc1 (stereo not given)
  ·	·	1%	·	-16%	2%	7%	·
5	CC1CC(Nc2ccccc2)c2ccccc2N1C(=O)c1ccccc1F (stereo not given)
  ·	·	13%	·	0%	-2%	?	·
6	COCCN(Cc1nnc(-c2cccs2)o1)C(=O)CN1C(=O)NC2(CCCCC2)C1=O
  ·	·	·	-4%[46.1 µM]	-1%	1%	-9%	2%[46.1 µM]
7	COc1cccc(C(=O)NCC(=O)N2CCN(c3ccc(C(F)(F)F)cn3)CC2)c1
  ·	·	·	-23%	32%	-8%	?	?
8	CC(/C=C1\N=C(SCc2ccccc2)SC1=O)=C\c1ccccc1
  ?	-5.9%	25%	-2%	16%	-3%	11%	-13%
9	Cc1ccc(/C=C2/C(=O)N(c3ccccc3)C(=S)N2C)o1
  -20%	-7.8%	-6%	-29%	?	5%	4%	?
10	Cc1ccccc1CS(=O)(=O)CCC(=O)NCCCN1CCOCC1
  -6%	-4.8%	5%	-2%	13%	-1%	-11%	21%
11	Cc1cccc(-c2noc(-c3ccc4c(c3)OCO4)n2)c1
  ·	·	-4%	?	-1%	-1%	-64%	?
12	COCCN1C(=O)N[C@H](c2cccc(C(F)(F)F)c2)C(C(=O)OC)=C1C
  -2%&-4%	-1.0%&-2.6%	-6%	4%	·	6%	·	9%&9%&9%
13	COc1cccc(CNC(=O)c2oc3c(c2C)-c2nn(Cc4cccc(Cl)c4)cc2CC3)c1
  -6%	-5.9%	·	27%[46.1 µM]	·	·	-23%	·
14	Cc1ccc2ncnc(Nc3cccc([N+](=O)[O-])c3)c2c1
  ·	·	-6%	·	-8%	-4%	-24%	·
15	NC(=O)c1ccc(NC(=O)CNCc2ccccc2Cl)cc1
  ·	·	4%	·	3%	3%	40%[activator]	8%[46.1 µM]
16	CCOC(=O)c1cn(-c2ccc([N+](=O)[O-])cc2)c2cc(Cl)c([N+](=O)[O-])cc2c1=O
  -4%	0.5%	14%	?	3%	5%	-22%	30%
17	O=C(O)COCC(=O)N1CCN(C2c3ccccc3-c3ccccc32)CC1
  ·	·	0%	-19%[46.1 µM]	6%	0%	-6%	?
18	CCNC(=S)NNC(=O)c1cc(C2CC2)nc2ccccc12
  2%	2.6%	28%	23%	16%	6%	53%[activator]	3%
19	CC(C(=O)Nc1ccc(Cl)cc1)c1ncc(C(F)(F)F)cc1Cl (stereo not given)
  -8%	1.4%	8%	10%	9%	-4%	-8%	-11%
20	COc1ccnc(NCc2cccnc2)c1C#N
  -9%	2.4%	-5%	7%	-8%	7%	0%	8%

Going on with the list:
Value order: Cruzain noTriton	Cruzain Triton	NS1 function inh	LASV entry inh	RE007 growth inh	SARS PLpro yeast	StopGo reporter	Marburg entry inh
21	Cc1ccccc1CNS(=O)(=O)c1ccccc1[N+](=O)[O-]
  ·	·	-3%	7%	7%	-1%	2%	?
22	Nc1ccc(-c2n[nH]c(=O)c3ccccc23)cc1N
  -27%	-1.8%	10%[9.22 µM]	1%	7%	-4%	-17%	14%
23	CCCCc1ccc(/C=C2/C(=O)ON=C2c2ccccc2)s1
  -6%	-15%	3%	-10%	-9%	11%	-13%	3%
24	CCOc1cc(CNC(=O)c2ccc3c(c2)N(C)C(=O)C2CCCCN32)ccc1OC (stereo not given)
  5%	-3.2%	·	-1%[46.1 µM]	·	·	-11%	·
25	COc1cccc(C(=O)Nc2cc3c(cc2C(C)=O)OCCO3)c1
  ?	-9.8%	1%	-1%	0%	7%	-13%	?
26	O=C(NCC1COc2ccccc2O1)C1CCN(S(=O)(=O)c2ccccc2)CC1 (stereo not given)
  ·	·	·	2%	-5%	-5%	-20%	3%
27	CCC(CC)NC(=O)c1cc([N+](=O)[O-])ccc1N1CCOCC1
  -2%	-8.5%	4%	3%	-14%	-8%	-12%	?
28	CCC(=O)Nc1nc(CC(=O)Nc2ccccc2OC)cs1
  -9%	-1.0%	1%	-1%	-3%	-2%	-20%	3%
29	CC(C)c1ccc(NC(=O)COc2ccc(C3SCCS3)cc2)cc1
  ·	·	0%	6%	-7%	-2%	0%	?
30	COc1ccc(CCNC(=O)c2ccc3c(c2)NC(=O)C(N2CCOCC2)S3)cc1OC (stereo not given)
  -2%	1.1%	-6%	9%	13%	17%	0%	3%&3%
31	Cc1nn(S(=O)(=O)c2ccc(F)cc2)c(C)c1S(=O)(=O)N1CCOCC1
  ·	·	18%	·	2%	-3%	-20%	·
32	O=C(NCC1CCCCC1)c1cccc(S(=O)(=O)N2CCCC2)c1
  ·	·	·	-2%	-1%	-3%	-6%	-2%
33	COc1cccc(C2=NOC(C(=O)Nc3ccc(C(C)=O)cc3)C2)c1 (stereo not given)
  -5%	-5.9%	-10%	8%	1%	-8%	46%[activator]	?
34	Cc1ccc(/C=C(\C#N)C(=O)NCC2CCCO2)o1 (stereo not given)
  -5%	-11%	3%	10%	-16%	16%	30%[activator]	18%
35	N#C/C(=C\c1ccc(O)c(O)c1)C(=O)Nc1cccc2ncccc12
  ·	·	13%	24%[46.1 µM]	6%	?	-11%	-26%[46.1 µM]
36	Cc1[nH]nc2c1/C(=N\O)CC(C)(C)C2
  -9%	-1.9%	-6%	12%	0%	4%	-8%	14%[46.1 µM]
37	CCOC(=O)C(=CNc1cccc(N)n1)C(=O)OCC
  9%	-3.4%	-7%	2%	-2%	0%	-7%	-2%
38	Cn1cc([N+](=O)[O-])c(C(=O)NCc2ccccc2)n1
  ·	·	3%	·	28%	0%	-12%	·
39	Cc1ccc(CN2CCN(C3CCN(C(=O)c4ccc(C)cc4)CC3)C(=O)C2=O)cc1
  -13%	1.3%	·	14%[46.1 µM]	·	·	11%	·
40	O=C(NCCNC(=O)c1ccc(F)cc1)c1ccc(F)cc1
  ·	·	·	15%[46.1 µM]	3%	·	0%	0%[46.1 µM]

Down the list, quoted from above.
Entries 23 to 32 in SARS PLpro yeast, in turn: 11%, ·, 7%, -5%, -8%, -2%, -2%, 17%, -3%, -3%
Entries 23 to 32 in Marburg entry inh, in turn: 3%, ·, ?, 3%, ?, 3%, ?, 3%&3%, ·, -2%

Additional entries follow:
Value order: Cruzain noTriton	Cruzain Triton	NS1 function inh	LASV entry inh	RE007 growth inh	SARS PLpro yeast	StopGo reporter	Marburg entry inh
41	Cc1ccccc1-n1c(SCC(=O)N(C)C2CCS(=O)(=O)C2)nnc1-c1ccncc1 (stereo not given)
  ·	·	·	-8%	-1%	0%	4%	-9%[46.1 µM]
42	CCN=C1SC(C(=O)Nc2cccc(Br)c2)CC(=O)N1CC (stereo not given)
  -4%	-1.7%	1%	3%	-4%	-4%	-13%	?
43	Brc1csc(CN2CCc3nc(Nc4ccccc4)ncc3C2)c1
  ?	-9.1%	·	8%[46.1 µM]	·	·	-9%	·
44	CCOC(=O)C1CCCCN1S(=O)(=O)c1cc2c(cc1C)NC(=O)CO2 (stereo not given)
  ·	·	12%	·	2%	1%	-20%	·
45	CCN(CC)S(=O)(=O)c1ccc(Cl)c(NC(=O)COC(=O)c2ccc(O)cc2)c1
  ·	·	·	-21%	15%	1%	?	-19%[46.1 µM]
46	CC(C)c1ccc(Nc2cc(C(=O)NC3CCCCC3)c3ccccc3n2)cc1
  1%	0.0%	·	12%[46.1 µM]	·	·	-1%	-27%[46.1 µM]
47	COc1ccccc1N1CCN(CCN2C(=O)C3CCCCN3C2=O)CC1 (stereo not given)
  ·	·	-14%	7%	-4%	11%	2%	3%
48	CCn1c(C(=O)Nc2cc(C)cc(C)c2)cc2sc(Cl)cc21
  ?	8.3%	·	·	·	·	1%	28%[46.1 µM]
49	COc1ccc(C(=O)N/N=c2\oc3ccccc3cc2C(=O)NCc2ccccc2)cc1
  2%	-3.7%	9%	-7%	7%	21%	21%	?
50	O=S(=O)(O)c1cc(Cl)cc(N=Nc2ccc(O)cc2O)c1O
  ·	·	·	-20%	-4%	·	?	-4%
51	CSc1nc(N)nc(C(C)C)n1
  ·	·	5%	-23%[46.1 µM]	-1%	1%	3%	0%[46.1 µM]
52	CCOC(=O)N1CCN(C(=O)CSc2nnc(-c3ccc(Cl)s3)o2)CC1
  -12%	-0.8%	4%	·	·	-7%	·	0%
53	O=[N+]([O-])c1cccnc1N1CCCNCC1
  ·	·	2%	-2%[46.1 µM]	-10%	-3%	0%	-28%[46.1 µM]
54	C[C@H](NC(=O)N1C[C@H]2C[C@@H](C1)c1cccc(=O)n1C2)C(=O)Nc1ccc(F)c(F)c1
  ·	·	-9%	·	7%	2%	-3%	·
55	c1ccc(-c2cc3c(ccc4nonc43)nn2)cc1
  -7%	-2.3%	-6%	-9%	-3%	5%	18%	3%

Gathered by group, the entries above containing an NH in an aromatic ring.
Value order: Cruzain noTriton	Cruzain Triton	NS1 function inh	LASV entry inh	RE007 growth inh	SARS PLpro yeast	StopGo reporter	Marburg entry inh
22	Nc1ccc(-c2n[nH]c(=O)c3ccccc23)cc1N
  -27%	-1.8%	10%[9.22 µM]	1%	7%	-4%	-17%	14%
36	Cc1[nH]nc2c1/C(=N\O)CC(C)(C)C2
  -9%	-1.9%	-6%	12%	0%	4%	-8%	14%[46.1 µM]

Not a hit list. About 4.5% of those tested had a hit in this group.
